Screening results deposited in PubChem BioAssay by Johns Hopkins Ion Channel Center.
KCNQ2 pot: potentiators of rat KCNQ2 potassium channel | B-score at 10 µM | AID 2239, 2010 | CHO-K1 KCNQ2, FluxOR thallium flux fluorescence; active compounds read high | 310,000 compounds, 0.54% hits | Potassium voltage-gated channel subfamily KQT member 2 (Rattus norvegicus), O88943;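 active = fluorescence ratio B-score at least 3 SD of library B-scores, with initial fluorescence B-score within 3 SD, cut at about 5.3 in these data; same plate scores as AID 2156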;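 note: B-score of peak minus minimum over baseline fluorescence ratio after K+ and Tl+ stimulus; positive B-score means potentiation of KCNQ2 with more thallium influx and brighter signal; only the inactives scoring about 0 or higher are listed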
Target sequence (O88943 whole entry, looked up): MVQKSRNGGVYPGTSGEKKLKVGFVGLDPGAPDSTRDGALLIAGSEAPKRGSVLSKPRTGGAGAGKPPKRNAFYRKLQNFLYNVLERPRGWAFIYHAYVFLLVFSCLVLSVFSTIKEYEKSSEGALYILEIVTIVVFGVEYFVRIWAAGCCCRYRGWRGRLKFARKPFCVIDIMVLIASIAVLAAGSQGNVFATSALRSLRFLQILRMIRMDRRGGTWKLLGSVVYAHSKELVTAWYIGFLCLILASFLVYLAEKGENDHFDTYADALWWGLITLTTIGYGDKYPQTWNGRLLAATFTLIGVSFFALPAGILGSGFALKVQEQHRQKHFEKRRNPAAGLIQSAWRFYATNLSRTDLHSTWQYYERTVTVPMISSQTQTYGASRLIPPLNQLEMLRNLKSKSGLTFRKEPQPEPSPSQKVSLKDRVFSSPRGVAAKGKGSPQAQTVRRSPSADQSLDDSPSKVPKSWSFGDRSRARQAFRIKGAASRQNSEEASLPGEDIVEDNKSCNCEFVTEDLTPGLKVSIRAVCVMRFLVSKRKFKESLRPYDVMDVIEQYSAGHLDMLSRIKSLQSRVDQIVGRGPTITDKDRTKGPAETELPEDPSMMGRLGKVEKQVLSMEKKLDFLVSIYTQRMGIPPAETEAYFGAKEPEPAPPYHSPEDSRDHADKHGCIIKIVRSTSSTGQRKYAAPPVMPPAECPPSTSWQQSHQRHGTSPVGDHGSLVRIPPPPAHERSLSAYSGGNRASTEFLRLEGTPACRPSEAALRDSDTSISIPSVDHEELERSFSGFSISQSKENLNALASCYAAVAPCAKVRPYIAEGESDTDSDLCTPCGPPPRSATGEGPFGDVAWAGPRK
KCNQ2 pot baseline: second read-out of KCNQ2 pot, no call of its own (marks repeat the call); B-score; compound at 10 µM; measured here: initial fluorescence intensity artifact check;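 brightness before thallium and not channel activity; 0 = typical well and far values either way flag optical interference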
* hit, by the source's call; x = no result given. Not all compounds are listed, so the mix of outcomes need not match the whole.

Each structure is followed by: KCNQ2 pot	KCNQ2 pot baseline
CCCCNc1c(N2CCN(C(=O)OCC)CC2)c(=O)c1=O
→ 0.91	-0.15
O=C(CCCOc1ccc(Br)cc1)NNC(=O)c1ccncc1
→ 2.6	-0.21
COc1cc(/C=C/CN2CCC(Oc3ccc(C(=O)N4CCCC4)cc3)CC2)ccc1O
→ 1.6	0.95
CC(C)CN(C(=O)Cn1c(C(F)(F)F)nc2ccccc21)C1CCS(=O)(=O)C1 (stereo not drawn)
→ 0.09	-0.9
O=C(Nc1cc2c(cc1C(=O)O)OCCCO2)c1ccc(F)cc1F
→ 2.9	0.24
Cc1cccn2c(=O)c(/C=C(\C#N)C(N)=O)c(N3CCN(c4cccc(Cl)c4)CC3)nc12
→ 0.99	-0.59
Cc1onc(-c2ccccc2)c1C(=O)NCc1ccc2c(c1)OCO2
→ 0.17	-0.17
COc1cccc(NC(=O)CSc2nc3c(sc4ccccc43)c(=O)n2CCN(C)C)c1
→ 0.49	-0.79
C=CCN(c1ccc(C(=O)OC)cc1)S(=O)(=O)c1ccccc1
→ 0.29	-1.2
CCCCc1cc(=O)oc2cc(C)cc(OCC(=O)NCC3CCC(C(=O)O)CC3)c12 (stereo not drawn)
→ 1.9	0

Next section
Each structure is followed by: KCNQ2 pot	KCNQ2 pot baseline
CCOc1ccsc1C(=O)O
→ 0.34	-2.3
COc1ccc(/C=C/C(=O)NCc2cn(C)nc2C)cc1COc1ccc(Cl)cc1Br
→ 0.56	0.51
COc1ccc(CCn2cnc3c([nH]c4ccccc43)c2=O)cc1
→ 1.8	-0.25
CCOc1ccc(CN2CCNC(=O)C2CC(=O)N(C)C2CCCCC2)cc1 (stereo not drawn)
→ 0.16	-0.14
CC(C)(C)CC(C)(C)NC(=O)Nc1cccc([N+](=O)[O-])c1
→ 1.2	-1.7
COc1ccc(C(=O)NCCNC(C)=O)cc1S(=O)(=O)NCc1ccc(Cl)cc1
→ 0.16	-1.1
Cc1cccc(NC(=O)c2cc(=O)c3ccccc3o2)c1
→ 2.2	-2.1
COc1cccc(C(=O)Nc2ccc(NC(=O)C3CCCCC3)nc2)c1
→ 0.39	0.33
Cc1cccc2c(=O)cc(C)n(Cc3ccccc3)c12
→ 0.16	0
COc1ccc(/C(C)=N/NC(=O)C2CC2)cc1
→ 1.2	-0.26

New compounds follow:
Each structure is followed by: KCNQ2 pot	KCNQ2 pot baseline
COC(=O)Nc1ccc(S(=O)(=O)N2CCCC(C(=O)N3CCOCC3)C2)cc1 (stereo not drawn)
→ 0.49	-0.82
CCOC(=O)c1cc(NC(=O)N2CCCCC2)c(C)nc1C
→ 1.1	1.6
COc1cc(/C=C2\SC(=S)N(C(C(=O)O)c3ccccc3)C2=O)cc(OC)c1OC (stereo not drawn)
→ 2.2	-1.4
CC(C)CC(=O)Nc1nnc(SCC(=O)NCc2ccco2)s1
→ 0.56	0.64
O=C(NCC1CCCCC1)C1CCCN(C(=O)NC2CCCCC2)C1 (stereo not drawn)
→ 1.1	-0.01
O=C1CCCN1c1ccc(C(=O)N(Cc2nnc(-c3ccc(Cl)cc3)o2)C2CC2)cc1
→ 0.86	0.01
CN(C)c1ccc(CNCC2CCCO2)cc1 (stereo not drawn)
→ 0.12	-0.35
CCOC(=O)c1nn(-c2ccc(Cl)cc2)c2nc(Nc3ccccc3)cc(=O)n12
→ 0.03	-1.5
NC(=O)Cn1c(-c2nonc2N)nc2ccccc21
→ 0.07	1.3
C=C(C)Cn1c(N2CCN(CC)CC2)nc2c1c(=O)[nH]c(=O)n2C
→ 1.8	-1.4

Next compounds
Each structure is followed by: KCNQ2 pot	KCNQ2 pot baseline
COc1ccc(C(=O)CSc2nc(C(C)(C)C)nc3ccccc23)cc1
→ 13*	2.1*
O=C1CCCC/C1=C\Nc1ccc(C(=O)O)c(O)c1
→ 0.5	-2.4
O=c1cc(-c2ccc(O)cc2)oc2ccccc12
→ 1.6	-0.04
COc1ccc(CCNC(=O)Cn2cccc2C(=O)c2ccccc2)cc1OC
→ 1.4	-0.95
Cc1nnc(SCc2nc3ccccc3[nH]2)s1
→ 0.04	-1.5
CCOC(=O)C(CCc1nnc(N)s1)C(=O)OCC
→ 0.44	-0.41
Cc1ccc(CSCC(=O)Nc2ccc(N3CCOCC3)cc2N2CCOCC2)cc1
→ 0.21	1.1
COc1ccc(Cl)cc1NS(=O)(=O)N1CCOCC1
→ 0.93	-0.88
CCN1CCN(S(=O)(=O)c2ccc(Cl)c(C(=O)Nc3ccccc3N3CCCCC3)c2)CC1
→ -5.6	x
NC(=O)CC(CC(=O)OCc1ccccc1)c1ccccc1 (stereo not drawn)
→ 0.93	0.02

The listing continues:
Each structure is followed by: KCNQ2 pot	KCNQ2 pot baseline
COc1ccc(C(=O)NCCc2c[nH]c3ccc(OC)cc23)cc1
→ 0.58	0.08
COc1cccc(C2C(C#N)=C(C)NC3=C2C(=O)CC(C)(C)C3)c1 (stereo not drawn)
→ 0.49	0.94
CCCC(=O)Nc1ccc(NC(=O)c2cccs2)cn1
→ 0.79	-0.37
Cc1ccccc1NS(=O)(=O)c1ccc2c3c(cccc13)C(=O)N2C
→ 0.04	-0.77
CC(C)c1ccc(/C=N/NC(=O)c2ccccn2)cc1
→ 0.21	1.5
CCOc1ccccc1NS(=O)(=O)c1ccc2c(c1)NC(=O)CCS2
→ 3.4	-0.46
CCN(CC(=O)Nc1c(F)cccc1F)C(=O)CN1C(=O)c2ccccc2C1=O
→ 1	-0.02
CC(C)c1nc(SCC(=O)Nc2c[nH]c(=O)[nH]c2=O)c2cnn(-c3ccccc3)c2n1
→ 0.15	-3.5
COc1cccc(NC(=O)c2ccccc2SC)c1
→ 0.01	-0.02
CCS(=O)(=O)N1CCC(C(=O)NCC2CCCO2)CC1 (stereo not drawn)
→ 0.03	2.1

Continuation:
Each structure is followed by: KCNQ2 pot	KCNQ2 pot baseline
COc1ccc(NC(=O)c2ccc(Oc3ncccn3)cc2)cc1
→ 1.1	1.3
COc1ccc(N(CC(=O)Nc2ccccc2C(=O)NCc2ccco2)S(C)(=O)=O)cc1
→ 0.25	1.1
CCCCC(CC)C1OCC(C[N+]2(C)CCOCC2)O1 (stereo not drawn)
→ 0.64	-1
Cc1cc(N(C)C)c(C#N)c(N2CCOCC2)n1
→ 0.2	0.1
Cc1cc(NC(=O)CSc2nccn2C)n(-c2ccccc2)n1
→ 1.4	0.86
Cc1cc(C)c(C(=O)N2CCCC(Nc3ccc(F)cc3)C2)o1 (stereo not drawn)
→ 1.3	1.3
CN(Cc1ccccc1)c1ccc(C(CC(N)=O)NC(=O)c2ccc(Br)cc2)cc1[N+](=O)[O-] (stereo not drawn)
→ 0.78	0.06
CN(Cc1ccccc1)S(=O)(=O)c1cccc2nsnc12
→ 0.65	0.37
O=C(NC1CCCCC1)NC1CC2CCC(C1)N2C(=O)NCc1ccccc1 (stereo not drawn)
→ 0.65	-0.31
C#CCN(C(=O)c1ccc(OC2CCN(Cc3ccccn3)CC2)cc1)C1CCCCC1
→ 0.43	-0.72

Complete entries, quoted from the list.
C#CCN(C(=O)c1ccc(OC2CCN(Cc3ccccn3)CC2)cc1)C1CCCCC1 reads KCNQ2 pot: 0.43; KCNQ2 pot baseline: -0.72
COc1ccc(N(CC(=O)Nc2ccccc2C(=O)NCc2ccco2)S(C)(=O)=O)cc1 reads KCNQ2 pot: 0.25; KCNQ2 pot baseline: 1.1

(more compounds)
Each structure is followed by: KCNQ2 pot	KCNQ2 pot baseline
Cc1ccc(C(=O)N2N=C(c3ccc(Br)cc3)CC2c2ccccc2O)cc1 (stereo not drawn)
→ 0.05	-0.7
CN(C)c1ccc(NC(=O)c2cccc(N3C(=O)CCC3=O)c2)cc1
→ 1.3	-1.3
CN(C)c1nc(Oc2ccc(OCCOc3ccccc3)nn2)nc(N(C)C)n1
→ 0.64	-0.96
CCOc1cc(NC(=O)C2CC2)c(OCC)cc1NC(=O)c1ccccc1OCC
→ 0.12	-0.76
COc1ccc(-c2nn(C)c(=O)[nH]2)cc1
→ 0.63	2.2
COc1ccc(/C=C/C(=O)OCC(=O)Nc2cc3oc4ccccc4c3cc2OC)cc1
→ 1.1	-0.94
Cc1ccc(NC(=O)COc2ncnc3sccc23)cc1S(=O)(=O)N(C)C
→ 0.38	0.96
CN1C(=O)N(S(=O)(=O)c2ccc(F)c(F)c2F)C(=O)C1(C)C
→ 0.67	-0.29
O=C(NCc1cccc(Cl)c1)c1ccc(N2CC3CC(C2)c2cccc(=O)n2C3)c(NC(=O)c2cccnc2)c1 (stereo not drawn)
→ 0.63	-0.33
FC(F)(F)c1ccc(CSc2ccccn2)cc1
→ 0.02	0.43

The listing continues:
Each structure is followed by: KCNQ2 pot	KCNQ2 pot baseline
Cc1onc(C(N)=O)c1C(=O)Nc1ncc(C(F)(F)F)cc1Cl
→ 0.04	-1.7
CN(CC(=O)NC1CCCCCCC1)S(=O)(=O)c1cnc[nH]1
→ 1.2	2
COc1cccc(NC(=O)C2CCCC2)c1
→ 0.49	0.35
COc1ccc(C(=O)Nc2nc3ccccc3[nH]2)cc1S(=O)(=O)N1CCCC1
→ 1.1	2.2
CC1O[C@@H](O[C@H](C)CC/C=C/C(=O)O)C(O)C[C@H]1O (stereo partly drawn)
→ 1.1	-1.2
Nc1nonc1/C(=N/O)N1CCN(CCO)CC1
→ 0.37	0.81
CCc1nc2sccc2c(=O)n1N
→ 0.9	0.08
CSc1nsc(SCCN2C(=O)c3ccccc3C2=O)n1
→ 0.99	-1.2
COc1cccc(NC(=O)c2sc(Cl)nc2C)c1
→ 1.1	0.14
Cc1ccccc1OCC(=O)NCC(=O)N/N=C/c1cccc([N+](=O)[O-])c1
→ 0.03	1.3

Next section
Each structure is followed by: KCNQ2 pot	KCNQ2 pot baseline
CC(Oc1ccc(Br)cc1)C(=O)NCC(c1cccs1)N1CCOCC1 (stereo not drawn)
→ 0.52	-2.9
CC(=O)Nc1ccc(S(=O)(=O)Nc2nc(-c3ccc(C(C)(C)C)cc3)cs2)cc1
→ 0.79	0.9
C=CCNC(=O)C1CCN(c2c([N+](=O)[O-])cc(C(F)(F)F)cc2[N+](=O)[O-])CC1
→ 0.08	-0.7
CC1(NC(=O)CC[N+](C)(C)CCO)CS(=O)(=O)CC1S(=O)(=O)[O-] (stereo not drawn)
→ 0.85	-1.7
CCCCn1c(N)c(N(CC(C)C)C(=O)COC(=O)c2ccccc2NCCO)c(=O)[nH]c1=O
→ 0.08	1.9
N#C/C(=C\c1cccc([N+](=O)[O-])c1)c1ccccn1
→ 1.3	0.69
CN(C)S(=O)(=O)n1cc(/C=C(\NC(=O)c2ccccc2Cl)C(=O)N2CCOCC2)c2ccccc21
→ 0.34	1.4
Cc1ccccc1OCC(=O)Nc1ccc(NC(=O)c2ccco2)cc1
→ 0.04	1.5
Cc1cc(=O)[nH]c(CN2CCOCC2)n1
→ 1.4	-0.12
CC(NC(=O)c1ccccc1F)C1CC1 (stereo not drawn)
→ 0.23	-0.18

Going on with the list.
Each structure is followed by: KCNQ2 pot	KCNQ2 pot baseline
CC1CCCCC1NC(=O)CSc1nnc(CC(=O)Nc2ccccc2F)n1C (stereo not drawn)
→ 1.4	1.4
Cc1ccccc1NC(=O)Cn1nnc2c(cnn2-c2ccc(F)cc2)c1=O
→ 1.5	-0.61
CCc1nc(N)c(C#N)c(-c2cccnc2)c1C
→ 1.8	0.11
COc1nc(-c2ccc(Cl)cc2Cl)nc2ccccc12
→ 0.05	1.9
Cc1ccc(C(C)C)c(OCC(=O)NN=C2CCCCCCC2)c1
→ 1.2	0.45
Cc1ccc(NC(=O)[C@H](C)NC(=O)C2CCN(C(=O)[C@@H](NC(=O)OC(C)(C)C)C(C)C)CC2)cc1
→ 0.43	-0.33
COc1ccc(NC(C)=O)cc1NC(=O)C1CCN(C(=O)Nc2ccccc2)CC1
→ 2.2	-2.2
Cc1ccc2nc(C)c(C(=O)N/N=C/c3ccco3)cc2c1
→ 0.24	-0.32
CC(=O)Nc1c(F)c(F)c(F)c(F)c1F
→ 0.43	1.6
Nc1nonc1-n1nnc(C(=O)N/N=C/c2ccc(Cl)cc2Cl)c1CN1CCOCC1
→ 0.62	-1.7

Remaining list, next part:
Each structure is followed by: KCNQ2 pot	KCNQ2 pot baseline
CC(=O)c1ccccc1OC(=O)CCN1C(=O)C2C3C=CC(C4CC34)C2C1=O (stereo not drawn)
→ 0.09	0.04
NC(=O)c1ccsc1NC(=O)COC(=O)/C=C/c1ccc([N+](=O)[O-])cc1
→ 0.23	-1.7
CCCC[C@@H]1CN=C(N)N1CCc1cccc(F)c1
→ 0.66	-2.1
COc1ccccc1CNCc1cc(OC)c(OC)cc1OC
→ 0.12	-0.45
N=c1c2c3c(sc2ncn1N)CCCCC3
→ 0.78	-0.16
CS(=O)(=O)Nc1cccc(C2=NN(C(=O)c3ccccc3)C(c3cccs3)C2)c1 (stereo not drawn)
→ 1.9	0.13
CCOc1ccc(C2N(c3cc(C)on3)C(=O)C3CCCN32)cc1OC (stereo not drawn)
→ 0.86	-0.08
Cc1cc(Cl)cc(Cl)c1OCCN1CCCC1
→ 0.19	-0.69
Cc1coc2c(C)c3oc(=O)c(CCC(=O)NCCC(=O)O)c(C)c3cc12
→ 0.23	1.3

A second format for six compounds above:
smiles	KCNQ2 pot	KCNQ2 pot baseline
COc1ccc(Cl)cc1NS(=O)(=O)N1CCOCC1	0.93	-0.88
CCN1CCN(S(=O)(=O)c2ccc(Cl)c(C(=O)Nc3ccccc3N3CCCCC3)c2)CC1	-5.6	x
NC(=O)CC(CC(=O)OCc1ccccc1)c1ccccc1 (stereo not drawn)	0.93	0.02
COc1ccc(C(=O)NCCc2c[nH]c3ccc(OC)cc23)cc1	0.58	0.08
COc1cccc(C2C(C#N)=C(C)NC3=C2C(=O)CC(C)(C)C3)c1 (stereo not drawn)	0.49	0.94
CCCC(=O)Nc1ccc(NC(=O)c2cccs2)cn1	0.79	-0.37
